Screens as filed in PubChem.
RecA intein inh = Mtb RecA intein splicing inhibitors, primary screen, biochemical, fluorescence, HTS | AID 2221, 2009 | actives 0.75% (n = 290,000) | inhibition, %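 (about 9 µM by stock and volumes)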 | cell-free RecA intein splicing | Protein RecA (Mycobacterium tuberculosis (strain ATCC 25618 / H37Rv)), P9WHJ3; in the data active = inhibition above about 30%; inconclusive = no clear call, values can overlap the other calls;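 also: 0% = vehicle wells and 100% = reference inhibitor control wells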
Target sequence (P9WHJ3 whole entry, looked up): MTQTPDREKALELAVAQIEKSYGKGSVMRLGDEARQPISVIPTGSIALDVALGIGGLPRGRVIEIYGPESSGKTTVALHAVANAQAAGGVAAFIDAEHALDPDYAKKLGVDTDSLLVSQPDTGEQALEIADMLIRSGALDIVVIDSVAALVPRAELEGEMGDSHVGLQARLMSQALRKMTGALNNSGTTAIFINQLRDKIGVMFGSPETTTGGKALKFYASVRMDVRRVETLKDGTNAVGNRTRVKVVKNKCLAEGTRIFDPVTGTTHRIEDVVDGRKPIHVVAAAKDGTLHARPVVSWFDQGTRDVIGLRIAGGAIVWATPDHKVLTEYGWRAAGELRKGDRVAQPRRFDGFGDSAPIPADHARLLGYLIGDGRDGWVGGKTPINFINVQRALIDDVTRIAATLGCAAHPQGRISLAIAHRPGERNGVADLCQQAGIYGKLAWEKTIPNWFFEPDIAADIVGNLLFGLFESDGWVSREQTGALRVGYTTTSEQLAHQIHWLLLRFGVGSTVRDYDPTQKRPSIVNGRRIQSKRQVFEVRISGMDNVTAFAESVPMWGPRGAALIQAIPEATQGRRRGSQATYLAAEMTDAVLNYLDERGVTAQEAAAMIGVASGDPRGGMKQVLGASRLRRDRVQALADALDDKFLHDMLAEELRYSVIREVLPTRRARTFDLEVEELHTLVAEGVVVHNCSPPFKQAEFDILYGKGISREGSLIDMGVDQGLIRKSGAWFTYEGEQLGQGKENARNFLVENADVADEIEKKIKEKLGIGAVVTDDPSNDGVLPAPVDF
Arbovirus inh = antivirals against arbovirus infection, primary screen, cell-based, full library, 10K replicate subset. inhibition, % at 10 µM. AID 1251, 2008. arbovirus infection cell-based antiviral screen. actives 0.37% (n = 200,000);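 active = inhibition from about 30%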;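 also: bluetongue infection of BSR cells; cell survival read as ATP light after 72 h; 0% = infected wells without compound and 100% = uninfected wells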
Mtb bLac sens = beta-lactam sensitization of Mtb H37Rv, H37Rv; M. tuberculosis H37Rv growth with meropenem, percent inhibition; hits of this screen are not shown here; actives 0.27% (n = 330,000); inhibition, % at 25 µM;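 active = about 74% or more and at least 40 points above the plate without the antibiotic, then above 30% in a dose series; inconclusive = first-round hits that could not be retested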;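 also: growth measured after seven days incubation then overnight dye step; 0% = bacteria only wells and 100% = bacteria with antibiotic; twin plates without the antibiotic show which effects depend on it; some results filed as inactive read as strong as hits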
YopH PTP inh = YopH tyrosine phosphatase inhibitors, primary screen, biochemical, fluorescence Ex485/Em525. YopH tyrosine phosphatase [Yersinia enterocolitica]. AID 898, 2007. inhibition, %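 (about 10 µM by stock and volumes)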. actives 0.16% (n = 140,000);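 active = inhibition of 50% or more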;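 also: controls were vehicle for no effect and minimum signal wells for full effect; inactives centre near -20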
Mtb growth = M. tuberculosis H37Rv growth inhibitors, H37Rv strain (AID 1626); M. tuberculosis H37Rv growth inhibition; higher % means a stronger effect; inhibition, % at 10 µM; hits with a dose series show IC50 in µM; actives 0.95% (n = 220,000);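 active = confirmed in a dose series; inconclusive = inhibition above 80% but not taken into the dose series; inactive = below 80% or under 30% at every dose of the series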;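 also: bacteria incubated seven days before Alamar blue readout; 0% = bacteria only wells and 100% = bacteria with antibiotic wells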
Arbovirus inh repeat = recorded beside Arbovirus inh, whose call it bears; inhibition, %; measured here: 10K subset replicate screen; many hits read low in the repeat;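 first of two repeat runs on a subset; 0% = infected and 100% = uninfected wells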
Starred values were filed as active, the others as inactive; u = inconclusive; x = no result given. This is a subset, so the mix of outcomes need not match the whole.

SMILES	RecA intein inh	Arbovirus inh	Mtb bLac sens	YopH PTP inh	Mtb growth	others
O=C(NC1CCCC1)C(c1c[nH]c2ccccc12)N(C(=O)Cn1nnc(-c2ccc(Cl)cc2)n1)c1ccccc1 (stereo not drawn)	-2.1	-16	11	13	5%
CC(C)C(O)C1CCN(Cc2nc(Cc3ccccc3Cl)no2)CC1 (stereo not drawn)	-0.2	3	-4	x	0%
Cc1cc(C)c(S(=O)(=O)Nc2ccncc2)cc1C	-1.9	x	-21	x	x
CCN(CC)S(=O)(=O)c1ccc(S(=O)(=O)N2CCC(N3CCCCC3)CC2)cc1	0.6	x	-4	x	x
C=C(C)C(=O)Nc1cccc(C(C)=O)c1	0.8	-3	-2	-8	x
O=C1CSC(c2cccc(F)c2)N1c1ccccc1 (stereo not drawn)	-0.5	x	-3	x	x
O=C(Nc1ccnn1C1CCN(Cc2c(F)cccc2Cl)CC1)C1CCCC1	-3.2	x	-5	x	x
O=C1CCCC2=C1C(c1cccs1)CC(=O)N2c1ccc(F)cc1 (stereo not drawn)	4.2	0	1	x	-3%
COc1ccc(C(=O)NC(C)Cc2cnccn2)cc1OC1CCN(C(C)C)CC1 (stereo not drawn)	-3.5	x	-12	x	x
COc1ccc(/C(C)=N\n2cnnc2)cc1	0.8	-1	1	-31	-2%
Cc1ccc(-c2nc3ccccc3c(=O)n2-c2ccccn2)cc1	0.7	-12	0	-9	7%
CCC(=NC)C1=C(O)CC(c2ccccc2)CC1=O (stereo not drawn)	-4.6	x	2	x	x
c1ccc(CSc2nnc(Cc3ccccn3)o2)cc1	1.8	-1	-5	-43	1%
CCC(=O)Nc1ccc(S(=O)(=O)c2ccc(NC(=O)CC)cc2)cc1	-7.0	13	-9	-34	-2%
Cc1cc(Br)ccc1SCC(=O)OCC(=O)NC1CCCC1	5.4	5	1	x	1%
COc1cccc(C=N[C@@H](CO)[C@@H](O)c2ccc([N+](=O)[O-])cc2)c1O	4.7	x	-1	x	0%
N/C(=N/OC(=O)c1ccccc1Cl)c1ncc([N+](=O)[O-])s1	-2.4	x	99	x	u
CC(/C=C/c1ccc2c(c1)OCO2)=N/NC(=O)c1cccnc1	-1.3	-5	90	-25	35%
CC(C)OCCCNC(=O)CN1C(=O)CSc2ccc(S(=O)(=O)N3CCCCC3)cc21	0.0	x	1	x	x
Cc1cc(OCC(=O)NC(C)C)cc(C)c1Cl	0.6	3	-4	-17	-3%
COc1ccc(N2CC(C(=O)Nc3nnc(SCCC4OCCO4)s3)CC2=O)cc1 (stereo not drawn)	0.3	x	4	x	x
CC(C)CCNC(=O)C1CC(c2cccc(F)c2)=NO1 (stereo not drawn)	-0.5	x	36	x	4%
Cn1cccc1-c1nc2ccc(NC(=O)c3ccc([N+](=O)[O-])cc3)cc2[nH]1	0.7	-5	4	2	-12%
Cc1ccc(CC(=O)Nc2ccccc2-c2ccccc2)cc1C	13	-9	3	-11	4%
O=C(NCc1ccco1)C(=O)NCC(c1ccco1)N1CCOCC1 (stereo not drawn)	-9.3	0	1	x	48%
COc1cccc(/C(O)=C2\C(=O)C(=O)N(c3ccccn3)C2c2ccccc2OC)c1 (stereo not drawn)	x	13	13	-57	-10%
Cc1cc(/C=N/NC(=O)c2ccccn2)c(C)n1-c1cccc([N+](=O)[O-])c1	1.4	2	95	x	12%
CC(=O)c1cc(C#N)c(NCc2cc(-c3ccccc3)no2)nc1C	-2.3	-6	-7	x	-7%
COc1ccccc1NC(=O)/C=C1\NC(=O)CS1	-0.5	13	-1	x	-3%
CS(=O)(=O)N(CC(=O)Nc1cccnc1)c1ccc2c(c1)OCCO2	-2.7	0	1	-33	-5%
O=C(NCCc1ccccc1)c1ccccc1C(=O)NCCc1ccccc1	1.1	x	-3	x	x
CCOC(=O)c1ccc(N2CSC3=C(C#N)C(c4ccc(OC)cc4OC)CC(=O)N3C2)cc1 (stereo not drawn)	1.9	-1	-3	-18	42µM*	Arbovirus inh repeat=-2
COc1cc2ccccc2cc1C(=O)Nc1nnc(-c2ccncc2)o1	-5.6	x	60	x	x
Cc1ccccc1CSCC(=O)c1c(N)n(C)c(=O)n(C)c1=O	-1.4	-1	-8	3	-4%
COc1ccc(CCNC(=O)CCCCCNC(=O)N2CCn3c2nc2ccccc23)cc1OC	-0.6	x	-3	x	x
Nc1n[nH]c2cc(=O)n(-c3cccc(C(F)(F)F)c3)nc12	-2.0	8	-10	x	x
CCCCn1c(N)c(N(CCOC)C(=O)CCCc2nc3ccccc3s2)c(=O)[nH]c1=O	-0.2	x	-9	x	x
CCc1cccc(CC)c1NC(=S)NCC(c1cccnc1)N(C)C (stereo not drawn)	-1.0	-12	-10	x	-5%
COc1ccc(Cl)cc1NC(=S)N1CCC(c2ccc(C)cc2)C1 (stereo not drawn)	5.6	13	22	x	10%
CC(C)Cn1c(CN(Cc2ccccc2)Cc2ccccc2)nc2c1c(=O)n(C)c(=O)n2C	x	-40	9	-14	7%
Cn1c(NCc2ccccc2)nc2c1c(=O)n(Cc1ccc(Br)cc1)c(=O)n2C	3.0	-4	u	-47	14µM*
COc1ccc(S(=O)(=O)NN=C2CCCCC2)cc1	-4.7	8	-1	7	-3%
COc1ccc(C)cc1Nc1nc(C)nc2sc(C)cc12	3.3	x	1	x	x
CC(C)N(Cc1nc(-c2ccc3c(c2)OCO3)no1)CC1CCC(=O)N1 (stereo not drawn)	-0.3	0	-9	x	-7%
COc1ccc(OC)c(Nc2nc3ccccc3n3cnnc23)c1	-2.5	x	1	x	-1%
COC(=O)c1ccc(NCC(=O)N2CCCCCC2)cc1	x	-3	2	x	-9%
Cc1nn(CC(=O)NCc2cc3ccccc3[nH]2)c(C)c1[N+](=O)[O-]	0.9	5	1	-14	-5%
CCOc1ccc2oc(C(=O)NCC(C)(C)CN(C)C)c(C)c2c1	0.4	-9	-7	x	6%
O=C(CN1C(=O)c2ccccc2S1(=O)=O)NCc1ccco1	-0.8	-1	-5	x	-12%
COc1ccc(Cn2c(-c3ccc(C)cc3)nc3c(c(=O)c4ccccc4n3C)c2=O)cc1	-1.9	-2	-6	-9	9%
CSc1ccccc1NC(=S)NC1CCCCC1	2.5	2	16	x	2%
O=C(CN1CCN(Cc2ccccc2)CC1)NCCNc1ccc([N+](=O)[O-])cn1	0.0	11	3	x	15%
C=CCn1c(C)cc(C(=O)CN2C(=O)c3ccccc3C2=O)c1C	2.0	2	1	-23	-2%
CCCCC(=O)Nc1cccc(-c2csc(-c3ccccc3)n2)c1	0.9	-5	92	-22	76%
COc1ccc(OCC(=O)NCCc2c[nH]c3ccccc23)cc1	-0.5	-1	5	x	5%
COc1cc(CN2CC(=O)N(c3ccc(C)cc3)C2=S)cc(OC)c1OC	-3.2	-2	5	-22	4%
CCCNC(=O)c1ccccc1NC(=O)c1ccccc1SC	3.1	2	-2	x	3%
CN1C(=O)NC(c2cccc(O)c2)C(C(=O)c2cccs2)C1(O)C(F)(F)F (stereo not drawn)	2.7	-5	5	-18	-18%
CN(C)CCCC(C)(O)C(C)(C)c1ccccc1 (stereo not drawn)	1.7	-3	3	0	-2%
Cc1ccc(-n2c(SCC(=O)OC(C)C)nnc2-c2cnccn2)cc1	0.3	8	49	-41	-6%
(list continues)
SMILES	RecA intein inh	Arbovirus inh	Mtb bLac sens	YopH PTP inh	Mtb growth	others
COc1ccc2c(c1)cc(C(=O)N[C@@H](Cc1ccccc1)C(=O)N[C@@H](C)C(=O)O)n2C	-1.0	x	-6	x	x
O=[N+]([O-])c1ccc(N2CCc3ccccc3C2)nc1	1.2	x	9	x	x
Cc1ccc(COc2ccc(S(=O)(=O)N3CCCC3)cc2C(N)=O)cc1	-0.9	x	0	x	x
Cc1ccc(C(O)CN2C3=NCCN3c3ccccc32)cc1 (stereo not drawn)	-0.3	2	-12	-6	-10%
Fc1ccccc1CNC(=S)Nc1ccc(Cl)cc1	0.1	-31	7	-13	-10%
CCOC(=O)C1=C(C)NC2=C(C(=O)CCC2)C1c1coc2ccccc2c1=O (stereo not drawn)	1.2	5	4	17	-4%
CN(CCc1cnn(C)c1)Cc1cn(C)nc1-c1ccccc1F	-1.3	4	-2	x	7%
CC(=O)N(c1ccccc1)C1SC(=O)N(c2ccccc2)C1=O (stereo not drawn)	-0.3	-2	-1	-50	4%	Arbovirus inh repeat=1
CCc1cccc2c(C(=O)COC(=O)C3=NNC(=O)CC3)c[nH]c12	-2.0	3	-2	x	-2%
COc1c(C)cc(C(=O)C2CCCN(C(=O)c3ccc4[nH]ccc4c3)C2)cc1C (stereo not drawn)	-2.3	4	-4	x	-3%
FC(F)(F)c1nc2ncc(Cl)cc2[nH]1	-0.2	3	-3	-28	1%
O=C(c1ccco1)N1CCN(Cc2c(F)cccc2Cl)CC1	0.9	x	1	x	x
O=C(Nc1cc2c3c(c1)CC(=O)N3CCC2)c1c(F)cccc1F	14	x	-2	x	x
Cc1ccc(SCc2nnc(NC(=O)c3ccccc3)s2)cc1	2.6	5	3	16	3%
CCC1CCCCN1CCCNC(=O)CCCOc1cc(=O)n(C)c2ccccc12 (stereo not drawn)	-0.4	-1	6	x	0%
CC(=O)c1ccc(-c2ccc(C(=O)NC3CCCCCC3)o2)cc1	0.9	-17	-5	x	2%
Cc1cnc([N+](=O)[O-])n1CCOC(=O)NC(=O)c1cccc(F)c1	1.9	0	6	x	-5%

Among those listed so far, 18 have an aryl methoxy group.
SMILES	RecA intein inh	Arbovirus inh	Mtb bLac sens	YopH PTP inh	Mtb growth	others
COc1ccc(C(=O)NC(C)Cc2cnccn2)cc1OC1CCN(C(C)C)CC1 (stereo not drawn)	-3.5	x	-12	x	x
COc1ccc(/C(C)=N\n2cnnc2)cc1	0.8	-1	1	-31	-2%
COc1cccc(C=N[C@@H](CO)[C@@H](O)c2ccc([N+](=O)[O-])cc2)c1O	4.7	x	-1	x	0%
COc1ccc(N2CC(C(=O)Nc3nnc(SCCC4OCCO4)s3)CC2=O)cc1 (stereo not drawn)	0.3	x	4	x	x
COc1cccc(/C(O)=C2\C(=O)C(=O)N(c3ccccn3)C2c2ccccc2OC)c1 (stereo not drawn)	x	13	13	-57	-10%
COc1ccccc1NC(=O)/C=C1\NC(=O)CS1	-0.5	13	-1	x	-3%
CCOC(=O)c1ccc(N2CSC3=C(C#N)C(c4ccc(OC)cc4OC)CC(=O)N3C2)cc1 (stereo not drawn)	1.9	-1	-3	-18	42µM*	Arbovirus inh repeat=-2
COc1cc2ccccc2cc1C(=O)Nc1nnc(-c2ccncc2)o1	-5.6	x	60	x	x
COc1ccc(CCNC(=O)CCCCCNC(=O)N2CCn3c2nc2ccccc23)cc1OC	-0.6	x	-3	x	x
COc1ccc(Cl)cc1NC(=S)N1CCC(c2ccc(C)cc2)C1 (stereo not drawn)	5.6	13	22	x	10%
COc1ccc(S(=O)(=O)NN=C2CCCCC2)cc1	-4.7	8	-1	7	-3%
COc1ccc(C)cc1Nc1nc(C)nc2sc(C)cc12	3.3	x	1	x	x
COc1ccc(OC)c(Nc2nc3ccccc3n3cnnc23)c1	-2.5	x	1	x	-1%
COc1ccc(Cn2c(-c3ccc(C)cc3)nc3c(c(=O)c4ccccc4n3C)c2=O)cc1	-1.9	-2	-6	-9	9%
COc1ccc(OCC(=O)NCCc2c[nH]c3ccccc23)cc1	-0.5	-1	5	x	5%
COc1cc(CN2CC(=O)N(c3ccc(C)cc3)C2=S)cc(OC)c1OC	-3.2	-2	5	-22	4%
COc1ccc2c(c1)cc(C(=O)N[C@@H](Cc1ccccc1)C(=O)N[C@@H](C)C(=O)O)n2C	-1.0	x	-6	x	x
COc1c(C)cc(C(=O)C2CCCN(C(=O)c3ccc4[nH]ccc4c3)C2)cc1C (stereo not drawn)	-2.3	4	-4	x	-3%
